# HSD17B inh: qHTS Assay for Inhibitors of HSD17B4, hydroxysteroid (17-beta) dehydrogenase 4; 3-hydroxyacyl-CoA dehydrogenase type-2 (Homo sapiens), Q99714; 75,000 compounds, 7.6% hits; recombinant HSD17B10, NADH fluorescence kinetic; many of its hits are not listed in these tables; AID 893, 2007; Potency, µM (highest dose often 57.1 µM), for inactives: at the top dose activity change, negative = inhibition, hits mostly inhibitors; active = well fitted inhibition curve with a large enough effect; inconclusive = small, poorly fitted or top-dose-only effect; inactive = no such curve, though single readings can be large or run the other way;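 note: the protocol describes HADH2 (HSD17B10) and not the HSD17B4 of the title; nearly all actives have a fitted effect of over 70% in size; most hits overshoot -100% by far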
#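 20 nM HADH2, pH 9.0 Tris/Tween; cpd preinc 15 min RT; start w/ 1 mM NAD+ + 90 uM b-hydroxybutyryl-CoA; kinetic fluor ex360/em450 q30s x 4 min; delta last-first.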
# The depositor's hits bear a star; ? = inconclusive; [ ] = dose if it differs, or a comment. % is set by controls: 0 for no effect and ±100 for the full control effect; potency is the fitted concentration of half-maximal effect. The list is partial. The share of hits here may be higher or lower than overall.
SMILES,HSD17B inh
Cc1cc(C)cc(N2C(=O)CC(n3ccnc3)C2=O)c1 (stereo not drawn),-3.8%
O=C(CCn1c(=O)oc2ccccc21)N1CCc2ccccc21,0.3%
O=C(O)c1cc(S(=O)(=O)Nc2cccc(Cl)c2)ccc1O,1.1%
COc1cccc(C(=O)Nc2cc(NC(=O)c3ccco3)ccc2OC)c1,-0.6%
CCOC(=O)CSc1nnc(CNc2nc(-c3ccccc3)cs2)n1C,-8.9%
C=CCc1c(C)nc(SC)nc1Nc1ccc(C(C)=O)cc1,?
CCCCCCC(=O)c1c(C)[nH]c(C(=O)OCC)c1C,1.5%
CCOc1ccc(C2C(C(=O)c3ccco3)=C(O)C(=O)N2Cc2cccnc2)cc1 (stereo not drawn),?
COc1cccc(C(=O)Nc2ccc(NC(=O)C3CC3)cn2)c1,?
CCCCOc1ccc(NC2=NC3(CCCCC3)N=C(N)N2)cc1,10.1%
Cc1oc(-c2ccc(Cl)cc2)nc1CN1CCCC(C(=O)NCCCN2CCCC2=O)C1 (stereo not drawn),3.8%
N#Cc1cccc(NC(=O)N2CC[C@@]3(CCCN(C(=O)c4cnccn4)C3)C2)c1,3.3%
COC(=O)c1ccccc1NC(=O)CC#N,?
c1cnc(N2CC[N+]3(CCCC3)CC2)nc1,-1.8%
COc1ccc(-c2nnc3ccc(SC(C(C)=O)C(C)=O)nn23)cc1OC,-11.2%
O=C(O)c1ccc(S(=O)(=O)NC2CCCc3ccccc32)cc1 (stereo not drawn),3.8%
COc1ccc(NC(=O)CCOc2ccccc2)c(OC)c1,3.7%
CCCn1c(C)nc2c(NCCCCN(C)C)nc(C)nc21,5.8%
CCn1c(C)c(C(C)=O)c(NCc2ccccc2)nc1=S,0.5%
Cn1c(=O)c2c(nc(SCC(=O)Nc3ccccc3)n2C)n(C)c1=O,-11.1%
CCc1ccc(-c2nc(CS(=O)CC(=O)NCc3cccnc3)c(C)o2)cc1 (stereo not drawn),-21.0%
COc1ccc2nc(NC3=NCN(CC4CCCO4)CN3)nc(C)c2c1 (stereo not drawn),31.6µM*
COCCCNC(=O)C1CCN(C(=O)c2cc3sccc3n2Cc2ccc(F)cc2)CC1,-9.8%
Cc1ccc2[nH]c(=O)c(C(c3nnnn3CC3CCCO3)N3CCOCC3)cc2c1 (stereo not drawn),-6.8%
O=C(CSc1nnnn1-c1ccccc1)Nc1nc(-c2ccccc2)ns1,8.0%
Cc1nc(CCNS(=O)(=O)c2cccs2)cs1,3.5%
CC1=C(C(=O)NCc2ccccc2)C(c2cccs2)n2ncnc2N1 (stereo not drawn),-5.3%
Cc1cc(OCc2nc(N)nc(N)c2-c2ccc(Cl)c(Cl)c2)ccc1[N+](=O)[O-],-1.3%[11.4 µM]
CCOC(=O)c1c(C)oc2cc(Br)c(OC(C)C(=O)OCC)cc12 (stereo not drawn),0.5%
Cn1c(SCC(=O)N2CCN(c3cccc(Cl)c3)CC2)nnc1-c1ccncc1,-1.1%
Cc1[nH]nc2c1C(C1CC=CCC1)C(C#N)=C(N)O2 (stereo not drawn),-7.7%
Cc1ccc2c(c1)[nH]c1c(=O)n(CCN3CCNCC3)cnc12,-0.2%
O=C(C1CCCN(Cc2ccccc2Br)C1)N1CCCCC1 (stereo not drawn),8.4%
O=S(=O)(Cc1ccccc1)N1CCCC(c2nc(-c3ccc(F)cc3)no2)C1 (stereo not drawn),-3.9%
O=C1c2ccccc2NC(c2ccco2)N1O (stereo not drawn),-4.7%
COc1ccc(OC)c(-n2cc3c(=O)n(C)c(=O)n(C)c3c2)c1,-15.0%
COCCn1c(=O)[nH]c2cc(C(=O)NCCc3ccc(OC)c(OC)c3)ccc2c1=O,?
COc1ccc2oc(C)c(C(=O)Cn3ccnc3)c2c1,4.8%
CCOC(=O)c1c(NC(=O)c2ccco2)sc(C(=O)N2CCCC2)c1C,-5.8%
Cc1sc(NC(=O)CSc2nnc(-c3ccccc3)o2)c(C#N)c1C,3.2%
CC(C)OC(=O)CSc1nc2ncccc2[nH]1,2.3%
COc1cc(CNCc2ccc(OC)c(OC)c2OC)cc(OC)c1,5.2%
CCCc1cc(C(=O)Nc2ccccc2C(=O)OC)no1,?
Cc1ccc(C2C(C#N)=C(N)SC(N)=C2C#N)o1,?
Cc1ccccc1Cn1c(=O)c2c(nc3n2CCCN3Cc2ccccc2)n(C)c1=O,12.0%
O=C(CSc1nncs1)NCc1ccc2c(c1)OCO2,-3.1%
CN1CCC2(CC1)Nc1nc(SCc3ccc(Cl)cc3)nn1C1=C2CN(C)CC1,-1.6%
CC1(C)Cc2c(c(=S)nc(-c3ccccc3)n2CCCN2CCOCC2)CO1,-8.6%
Cc1ccc(C(C(=O)NC2CCCC2)N(Cc2cccs2)C(=O)CNC(=O)c2cccs2)o1 (stereo not drawn),4.1%
CC(=O)[C@@H]1[C@@H]2C(=O)N(Cc3ccccc3)C(=O)[C@@H]2C2c3ccccc3C=CN21 (stereo partly drawn),-28.3%
# More structures:
SMILES,HSD17B inh
CN(Cc1ccco1)c1ncncc1-c1cccc(NS(C)(=O)=O)c1,-8.1%
Cc1ccc(OCc2nnc(SCc3nc4ccccc4[nH]3)n2Cc2ccco2)cc1,-25.0%
O=C1C=C(NCc2ccncc2)CC(c2ccccc2)C1 (stereo not drawn),-5.5%
CCN(CC)c1cc(C)c2cc(NC(=O)CNC(C)=O)ccc2n1,25.1µM*
CCOc1ccc(CNC(=O)NS(=O)(=O)c2ccc(OC)cc2)cc1,4.0%
O=C(O)C1CSC(c2ccccc2)N1C(=O)c1ccco1 (stereo not drawn),-1.0%
CC(C)c1ccc2oc(=O)cc(CN3CCN(c4ccc(F)cc4)CC3)c2c1,-10.2%
O=C(CCCn1c(SCC(=O)NCC2CCCO2)nc2ccccc2c1=O)NCC1CCCO1 (stereo not drawn),0.1%
COc1ccc(OCCSc2ncnc3nc[nH]c23)cc1,12.4%
CCN(CCNC(=O)C1CCCN(Cc2nc(-c3ccc(OC)cc3)oc2C)C1)c1ccccc1 (stereo not drawn),?
Cc1sc2nc(CN3CCN(S(=O)(=O)c4cccc5nonc45)CC3)[nH]c(=O)c2c1C,-16.0%
COc1ccccc1-c1cncnc1Nc1ccccc1,-15.6%
Cn1c(SCc2ccccc2F)nnc1-c1cnccn1,1.4%
CC(=O)Nc1cccc(Oc2cc(C#N)c(C#N)cc2N2CCOCC2)c1,1.7%
COc1ccccc1N1CCN(C(=O)COc2ccc(Cl)cc2)CC1,-15.2%
CCCCn1c(N2CCC(Cc3ccccc3)CC2)nc2c1c(=O)[nH]c(=O)n2C,-6.7%
Cc1ccccc1CN1CCN(CC(=O)NCCCN2CCN(c3ccc(F)cc3)CC2)C1=O,1.3%
N#C/C(=C(/O)COC(=O)CCC1CCCCC1)c1nc2ccccc2[nH]1,5.0%
CCCOc1ccc(C2C(C(=O)c3ccc(C)o3)=C(O)C(=O)N2CCCn2ccnc2)cc1 (stereo not drawn),-1.2%
COc1ccc(-c2cc(OC)c3c(C)oc(C)c3c(=O)c2)cc1OC,-15.7%
COC(=O)c1[nH]c2ccc(F)cc2c1NC(=O)C1=COCCO1,?
CCOc1ccccc1N1CCN(c2nc(N)c(C#N)c(CC#N)c2C#N)CC1,-28.4%
O=C(Cn1nnc(-c2ccccc2)n1)NCc1ccccc1,5.1%
COC(=O)Cc1c(C)c2ccc(OCC(C)=O)c(C)c2oc1=O,25.1µM*
Clc1ccc2c(NCCNc3ccnc4cc(Cl)ccc34)ccnc2c1,3.5%[11.4 µM]
CCOC(=O)N1CCN(C(=O)c2ccc3c(SCC(=O)O)c4c(nc3c2)CCCC4)CC1,-0.6%
CC(=O)OCCOc1nc(N(C)C)nc(N(C)C)n1,-1.2%
CCOCCCNC(=O)c1cccs1,7.0%
COc1ccc(S(=O)(=O)NCC(c2cccnc2)N2CCN(c3ccc(F)cc3)CC2)cc1C (stereo not drawn),-1.7%
COc1ccc(S(=O)(=O)Nc2cc(C)ccn2)cc1OC,-10.3%
COCCSc1nnc(NC(=O)Cc2ccccc2OC)s1,-7.6%
COC(=O)c1c(NC(=O)CN2CCN(C(=O)c3ccco3)CC2)c2cc(C)ccc2n1C,?
CC(=O)c1c(C)nc(C)nc1NC(=O)C(C)C,-2.2%
CCOc1ccccc1N1C(=O)CC(Sc2ncccc2C(=O)O)C1=O (stereo not drawn),-10.1%
CCOC(=O)c1ccc(NC(=O)N2CCN(Cc3cccc(F)c3)CC2)cc1,0.8%
CS(=O)(=O)c1ccc(N)cc1,5.0%
CS(=O)(=O)N(CC(=O)NCC1CCCO1)c1cc(Cl)cc(Cl)c1 (stereo not drawn),15.6%
COc1ccc(-c2nn3c(-c4ccco4)nnc3s2)cc1OC,-11.3%
CCCCCCOC(=O)C(C#N)c1nc2ccccc2nc1N1CCN(C)CC1 (stereo not drawn),-5.8%
COC(=O)[C@@]1(Cc2ccc(F)cc2)[C@H]2c3cc(C(=O)N4CCCC4)n(Cc4ccc(OC(F)(F)F)cc4)c3C[C@H]2CN1C(=O)c1ccccc1,3.6%

# 3 entries from above, reformatted:
COc1ccc(-c2nn3c(-c4ccco4)nnc3s2)cc1OC
  HSD17B inh: -11.3%
COC(=O)[C@@]1(Cc2ccc(F)cc2)[C@H]2c3cc(C(=O)N4CCCC4)n(Cc4ccc(OC(F)(F)F)cc4)c3C[C@H]2CN1C(=O)c1ccccc1
  HSD17B inh: 3.6%
CS(=O)(=O)N(CC(=O)NCC1CCCO1)c1cc(Cl)cc(Cl)c1 (stereo not drawn)
  HSD17B inh: 15.6%

# (continued)
SMILES,HSD17B inh
O=C(O)C1C(c2ccccc2)C(C(=O)OCCCO)C1c1ccccc1 (stereo not drawn),-2.2%
O=C(NCc1cccs1)c1cnc2ccccn2c1=O,?
COc1ccc(CCNS(=O)(=O)c2ccc(C(=O)NCc3ccco3)cc2)cc1OC,-3.9%
COc1ccccc1N1CCN(c2nc(-c3ccccc3)cc(C(F)(F)F)n2)CC1,11.5%
COc1ccccc1NC(=O)CN1C(=O)C(C)Oc2ccccc21 (stereo not drawn),4.8%
COc1ccc(-c2cn3cccnc3n2)cc1NC(=O)C1CC1,?
COc1ccc(-c2cc(C(F)(F)F)n3ncc(C(=O)NCC4CCCO4)c3n2)cc1OC (stereo not drawn),3.2%
COc1ccc(-c2nc(CS(=O)(=O)CC(=O)NCCc3cc(OC)ccc3OC)c(C)o2)cc1,-2.0%
Cn1c(=O)cnc2cnc(Oc3ccccc3)nc21,-4.4%
CS(=O)(=O)c1ccc2nc(NC(=O)Oc3ccccc3)sc2c1,-11.6%

# In the list so far, eight contain a Cl atom:
SMILES,HSD17B inh
O=C(O)c1cc(S(=O)(=O)Nc2cccc(Cl)c2)ccc1O,1.1%
Cc1oc(-c2ccc(Cl)cc2)nc1CN1CCCC(C(=O)NCCCN2CCCC2=O)C1 (stereo not drawn),3.8%
Cc1cc(OCc2nc(N)nc(N)c2-c2ccc(Cl)c(Cl)c2)ccc1[N+](=O)[O-],-1.3%[11.4 µM]
Cn1c(SCC(=O)N2CCN(c3cccc(Cl)c3)CC2)nnc1-c1ccncc1,-1.1%
CN1CCC2(CC1)Nc1nc(SCc3ccc(Cl)cc3)nn1C1=C2CN(C)CC1,-1.6%
COc1ccccc1N1CCN(C(=O)COc2ccc(Cl)cc2)CC1,-15.2%
Clc1ccc2c(NCCNc3ccnc4cc(Cl)ccc34)ccnc2c1,3.5%[11.4 µM]
CS(=O)(=O)N(CC(=O)NCC1CCCO1)c1cc(Cl)cc(Cl)c1 (stereo not drawn),15.6%

# (listing goes on)
SMILES,HSD17B inh
c1ccc2c(-c3nc(C4CCCCC4)no3)cc(-c3ccncc3)nc2c1,-1.3%
Cc1nc(N(C)C)c2sc(=S)n(C)c2n1,5.5%
CCC12CC3CC(C1)CC(C(=O)O)(C3)C2,0.5%
CCc1c(C)nc2[nH]nc(-c3ccccc3C)n2c1=O,31.6µM*
CCOC(=O)c1c(C)[nH]c(C)c1C(=O)COC(=O)C1CCCN1S(=O)(=O)c1ccccc1F (stereo not drawn),1.2%
O=C1CCCN1C(=O)CCC(=O)N1CCCC1=O,-11.5%
Cc1onc(-c2ccccc2Cl)c1C(=O)Nc1cccc(-c2nc3ncccn3c2C)c1,12.6µM*
CSC(N)=NCCC[C@@H](N)C(=O)O,2.7%
O=C1CS/C(=N\C(=O)N2c3ccccc3Sc3ccccc32)N1,?
Cc1ccccc1-c1cncnc1N1CCN(C)CC1,-1.9%
Cc1ccc(Cn2c(=N)n(CC(O)c3ccco3)c3ccccc32)cc1 (stereo not drawn),-14.2%
CCOc1ccc(C(CC(=O)O)NC(=O)COc2ccccc2)cc1 (stereo not drawn),-0.7%
CCn1c(SCC(=O)OC)nc2sc3c(c2c1=O)CCC3,?
Cc1cc(=O)[nH]c(SCC(=O)NCc2ccco2)n1,?
Cn1c(COc2ccccc2)nnc1SCCN1CCOCC1,-3.2%
O=C(NCCN1CCOCC1)c1ccc(CS(=O)(=O)c2c(Cl)cccc2Cl)o1,2.0%
CCNC(=O)c1c(O)c2ccccc2[nH]c1=O,6.0%
COc1ccc(CNC(=O)c2cc(-c3ccccc3OC)on2)cc1,-13.9%
O=C(C1CCCN(Cc2cccnc2)C1)N1CCCCC1 (stereo not drawn),1.9%
COc1cc(OC)c(C#N)c(S(=O)Cc2ccccc2)c1 (stereo not drawn),-1.9%
c1nc2sc3c(c2c2nnnn12)CCC3,31.6µM*
Fc1cc(F)c2nc(N3CCCCC3)sc2c1,-9.7%
CCOc1ccccc1Nc1nnc(C)c(=O)[nH]1,5.1%
O=c1c2[nH]c3ccc(Br)cc3c2ncn1CCCn1ccnc1,-14.5%
CCOc1ncccc1C(=O)Nc1ccc(Cl)cc1,4.9%
COc1c(O)c(O)cc2c1oc1c3cc(C)ccc3oc(=O)c21,10µM*
CSCCC1NC2(C(=O)Nc3ccc(Cl)cc32)[C@@H]2C(=O)N(C3CCCC3)C(=O)[C@H]12 (stereo partly drawn),-11.9%
